D2 ag: agonists of human D2 dopamine receptor (beta-arrestin) | DiscoveRx PathHunter D2 beta-arrestin, luminescence, 90 min; 100% = 57 uM dopamine signal | activation, % (test concentration not listed) | 0.084% of 360,000 active; in the data active = activation above about 40%; inconclusive = about 15% to 40%; inactive = below about 15%; further: compound concentration not given in the record; the text of the record calls up to 30% inactive
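DiscoveRx PathHunter D2 beta-arrestin cells (2,100/well) attached overnight, then compound-stimulated 90 min at 37 C in HBSS/10 mM HEPES/0.1% Tween-20 buffer; beta-galactosidase complementation read by luminescence after 1 h at ambient temperature. Dopamine 57 uM final (EC100) as control.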
CtBP-E1A blk: blocks the CtBP interaction with E1A | 0.49% of 340,000 active | AlphaScreen GST-E1A/His-CtBP binding, 1536-well; hits give low values; control for the full effect not named in the record | AID 651724 | activity change, % (no concentration beside the values); in the data active means activity change below about -65%; inconclusive means about -30% to -65%; inactive means above about -30%; further: on the % scale 0 is the no-effect control and ±100 the full control effect; compound concentration not given in the record
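AlphaScreen with 125 nM GST-E1A and 125 nM His-CtBP (5X stocks) in Tris pH 8.0, 300 mM NaCl, BSA, Tween 20, TCEP. Compounds preincubated 2 h at 37 deg C, then glutathione donor/nickel acceptor beads added for 1 h at 37 deg C in dark.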
PINK1 modulator: PINK1 expression modulation | PINK1 immunofluorescence, high-content cytometry, 24 h | AID 624263 | 0.2% of 410,000 active | Potency, µM (top dose mostly 76.6 µM), without a hit: top-dose activation (PINK1 increase), hits mostly activators; active = well fitted activation curve with a large enough effect; inconclusive = small, poorly fitted or top-dose-only effect; inactive = flat fitted curve, though single readings scatter; cell line not stated here;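 further: potency means the concentration at half of the fitted maximal effect; % of control where 0% means no effect; nearly all actives have a fitted effect of over 65% in size; a mitochondrial uncoupler was the plate control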
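PINK1 protein level read as immunofluorescence by microplate cytometer in a fixed, stained stable cell line after 24 h exposure to five compound concentrations, with CCCP as control.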
Six1-Eya2 blk: Six1/Eya2 interaction inhibition; 0.56% of 360,000 active; AlphaScreen GST-Six1/His-Eya2 binding, biochemical; hits give low values; control for the full effect not named in the record; activity change, % (concentration not given with the values); AID 651725; in the data active = activity change below about -65%; inconclusive = about -30% to -65%; inactive = above about -30%; further: on the % scale 0 is the no-effect control and ±100 the full control effect
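Compounds are tested against tagged Six1 and Eya2 proteins bridged by glutathione donor and nickel acceptor beads; after a one-hour incubation at 37 °C without light, AlphaScreen emission is recorded.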
TRPML1 agonist: activates the human TRPML1 channel. TRPML1-expressing cells, Ca2+ dye fluorescence, FDSS; host cell line not named in the record; reference of the full effect not given here. Q9GZU1. activation, % (concentration not given with the values). AID 624414. 0.12% of 410,000 active; in the data active = activation above about 50%; inconclusive = about 30% to 50%; inactive = below about 30%; further: 0% is about no effect; the text of the record puts the active cut at 80%
Target sequence (Q9GZU1 whole entry, looked up): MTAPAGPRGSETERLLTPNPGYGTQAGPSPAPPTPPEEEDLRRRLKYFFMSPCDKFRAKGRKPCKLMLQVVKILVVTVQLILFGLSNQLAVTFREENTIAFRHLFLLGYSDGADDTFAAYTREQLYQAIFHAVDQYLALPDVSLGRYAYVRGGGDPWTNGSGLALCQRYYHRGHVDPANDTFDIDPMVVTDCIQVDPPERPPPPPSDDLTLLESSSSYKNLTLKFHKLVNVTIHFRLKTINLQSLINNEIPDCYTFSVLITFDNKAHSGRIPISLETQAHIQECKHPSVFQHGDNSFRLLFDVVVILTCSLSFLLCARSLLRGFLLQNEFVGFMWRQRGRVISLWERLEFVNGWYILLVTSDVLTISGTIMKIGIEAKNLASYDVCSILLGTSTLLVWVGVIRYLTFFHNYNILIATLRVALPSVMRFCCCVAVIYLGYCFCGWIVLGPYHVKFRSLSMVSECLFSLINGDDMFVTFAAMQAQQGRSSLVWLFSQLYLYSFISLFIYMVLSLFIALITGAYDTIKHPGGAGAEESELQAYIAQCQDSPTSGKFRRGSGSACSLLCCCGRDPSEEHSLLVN
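Tet-induced TRPML1-DL cells, 1,500 per well, cultured overnight, were loaded with a no-wash Ca2+ dye for 45–90 min. Calcium fluorescence was recorded on the FDSS for 110 s after compound addition, before the EC80 agonist (4 uM 54-4) was added.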
TRPML1 blocker: human mucolipin-1 channel inhibition | Q9GZU1 | TRPML1-inducible cells, Ca2+ dye fluorescence, FDSS; hits give low values; inhibition of EC80 agonist-evoked calcium signal | activity change, negative = inhibition, % (no concentration beside the values) | 0.02% of 390,000 active; in the data active means activity change below about -50%; inconclusive means about -30% to -50%; inactive means above about -30%;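 further: stimulus is agonist 54-4 at its EC80 concentration; on the % scale 0 is the no-effect control and ±100 the full control effect; compound concentration not given in the record; the text of the record puts the active cut at -80%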
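TRPML1-DL cells, Tet-induced overnight (~16 h, 37 °C) at 1,500 cells/well, were loaded with Ca8 no-wash dye plus quencher for 45-90 min at room temperature. Compounds were pinned during FDSS kinetic reading; agonist 54-4 at EC80 (4 uM final) then added.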
Numbers without * were called inactive; ? = inconclusive; . = no result given; [ ] = another dose, or the depositor's remark.

Value order: D2 ag	CtBP-E1A blk	PINK1 modulator	Six1-Eya2 blk	TRPML1 agonist	TRPML1 blocker
> CCN(CC)c1ncnc2c1ncn2[C@H]1CN(CCOC)C[C@@H](CO)O1
  -3.0	2.0	1.6%	6.1	-0.4	.
> O=C(c1cccc(Cl)c1)N1CCC2(CC1)NCCc1[nH]cnc12
  -1.0	.	-0.6%	3.2	3.0	22.2
> Cc1ccc(S(=O)(=O)N2CCCC2)cc1C(=O)NCc1ccccc1CN1CCCC1
  -4.4	.	-0.6%	7.6	0.2	-8.6
> COc1cccc(CNC(=O)[C@@H]2CCCN2C(=O)[C@@H]2CCCN2C(=O)c2cccc3ccccc23)c1
  .	5.6	-1.1%	-1.1	-0.8	.
> Cc1nn(-c2ccccc2)c2sc(C(=O)N(Cc3ccco3)C(C)C(=O)NC(C)(C)C)cc12 (configuration not stated)
  -1.9	-2.5	-3.5%	-7.5	-0.5	-19.4
> CC(=O)Nc1cccc(NS(=O)(=O)c2cccc3nsnc23)c1
  -2.5	-3.3	0.8%	7.6	-0.4	-16.2
> COc1ccccc1CCC(=O)Nc1cc(S(=O)(=O)N2CCCCC2)ccc1N1CCN(C)CC1
  -3.7	-1.2	2.7%	-2.2	0.3	16.2
> Nc1nc2ccccc2n1S(=O)(=O)c1ccc(Cl)cc1
  -1.9	0.0	8.2%	6.8	2.6	10.9
> O=C(OCc1ccccc1)N1CCC2CC1c1cc(N3CCOCC3)ccc12 (configuration not stated)
  2.2	-22.5	-1.1%	-24.5	3.4	30.1
> CCCNS(=O)(=O)c1ccc(C(=O)NCC2CCCO2)cc1 (configuration not stated)
  -2.1	-10.1	-2.4%[38.3 µM]	3.5	0.5	-2.8
> Cc1ccc(C)c(OCc2cc(C(=O)N3CCN(c4cnccn4)CC3)no2)c1
  0.9	-23.2	0.4%	-8.0	3.2	-2.0
> CC(=O)N1CCN(CC(O)Cn2c3ccccc3c3ccccc32)CC1 (configuration not stated)
  0.4	6.1	-1.3%	6.2	-0.3	-12.7
> CC1(C)Cc2ccccc2-c2nnc(SCC(=O)Nc3nc4ccccc4s3)n21
  -1.9	3.7	5.9%[38.3 µM]	-0.8	0.7	-1.8
> Cn1cccc1C(=O)C(=O)Nc1ccc(Cl)cc1
  -1.5	2.6	3.5%	-6.2	-1.0	9.2
> C/C(CC(=O)Nc1ccccc1C)=N\NC(=O)Cc1csc(N)n1
  -2.4	-0.7	-1.5%	0.7	3.2	19.8
> CCN(CC)S(=O)(=O)c1cccc(-c2nnc(SCCOc3ccc(Cl)cc3)o2)c1
  -3.9	8.5	-1.4%	3.6	0.6	11.6
> Cc1cccc(S(=O)(=O)NCC2CCCO2)c1 (configuration not stated)
  -1.2	6.3	0.1%	6.7	0.3	-20.5
> O=C(Nc1nnc(-c2ccc(F)cc2)s1)C1CCN(S(=O)(=O)c2ccc(Cl)cc2)CC1
  -2.0	13.2	?	-2.7	-0.1	-6.1
> Cc1sc2nc(CN3CCCC3)nc(N3CCN(S(=O)(=O)c4cccs4)CC3)c2c1C
  -2.5	-26.1	-4.2%	1.6	-0.8	-9.4
> O=C(COC(=O)CCC(=O)c1ccc2c(c1)OCCO2)NCc1ccc2c(c1)OCO2
  -1.6	6.9	2.6%	-1.2	-0.5	3.4

An excerpt from above in order of count of non-hydrogen atoms, ascending.
Value order: D2 ag	CtBP-E1A blk	PINK1 modulator	Six1-Eya2 blk	TRPML1 agonist	TRPML1 blocker
> Cc1cccc(S(=O)(=O)NCC2CCCO2)c1 (configuration not stated)
  -1.2	6.3	0.1%	6.7	0.3	-20.5
> Cn1cccc1C(=O)C(=O)Nc1ccc(Cl)cc1
  -1.5	2.6	3.5%	-6.2	-1.0	9.2
> CCCNS(=O)(=O)c1ccc(C(=O)NCC2CCCO2)cc1 (configuration not stated)
  -2.1	-10.1	-2.4%[38.3 µM]	3.5	0.5	-2.8
> O=C(c1cccc(Cl)c1)N1CCC2(CC1)NCCc1[nH]cnc12
  -1.0	.	-0.6%	3.2	3.0	22.2
> C/C(CC(=O)Nc1ccccc1C)=N\NC(=O)Cc1csc(N)n1
  -2.4	-0.7	-1.5%	0.7	3.2	19.8
> CC(=O)N1CCN(CC(O)Cn2c3ccccc3c3ccccc32)CC1 (configuration not stated)
  0.4	6.1	-1.3%	6.2	-0.3	-12.7
> O=C(OCc1ccccc1)N1CCC2CC1c1cc(N3CCOCC3)ccc12 (configuration not stated)
  2.2	-22.5	-1.1%	-24.5	3.4	30.1
> Cc1ccc(C)c(OCc2cc(C(=O)N3CCN(c4cnccn4)CC3)no2)c1
  0.9	-23.2	0.4%	-8.0	3.2	-2.0
> Cc1sc2nc(CN3CCCC3)nc(N3CCN(S(=O)(=O)c4cccs4)CC3)c2c1C
  -2.5	-26.1	-4.2%	1.6	-0.8	-9.4
> Cc1nn(-c2ccccc2)c2sc(C(=O)N(Cc3ccco3)C(C)C(=O)NC(C)(C)C)cc12 (configuration not stated)
  -1.9	-2.5	-3.5%	-7.5	-0.5	-19.4
> COc1ccccc1CCC(=O)Nc1cc(S(=O)(=O)N2CCCCC2)ccc1N1CCN(C)CC1
  -3.7	-1.2	2.7%	-2.2	0.3	16.2
> COc1cccc(CNC(=O)[C@@H]2CCCN2C(=O)[C@@H]2CCCN2C(=O)c2cccc3ccccc23)c1
  .	5.6	-1.1%	-1.1	-0.8	.

(further entries)
Value order: D2 ag	CtBP-E1A blk	PINK1 modulator	Six1-Eya2 blk	TRPML1 agonist	TRPML1 blocker
> CCN(CC)S(=O)(=O)c1ccc(C(=O)Nc2nc3c(Cl)cc(Cl)cc3s2)cc1
  .	.	-1.7%	.	0.8	45.0
> Cn1c(=O)c2c(nc(NCCCO)n2C/C=C/c2ccccc2)n(C)c1=O
  1.3	-0.6	-1.2%	-12.3	-0.3	16.7
> Cc1cc(Nc2ccc(Br)cc2)n2nc(C)nc2n1
  0.6	?	0.4%	?	2.1	13.3
> Cc1ccc(S(=O)(=O)N2CCC(=O)N(C(CO)C(C)C)CC2)cc1 (configuration not stated)
  -1.2	.	1.0%	11.8	-0.6	-5.2
> CCOc1ccccc1Nc1ncnc2ccc(Br)cc12
  -5.0	6.8	2.5%	3.6	-0.1	-7.6
> CC(C)(C)NC(=O)N1CCC(CO)(Cc2ccccc2Cl)CC1
  1.5	16.1	2.2%	1.6	0.0	16.6
> Cc1cc(C(=O)Nc2ccc(Cl)cc2)c(C)n1Cc1cccs1
  5.8	?	2.7%	-24.5	1.8	51.4
> CCCc1ccc(OCc2ccc(C(=O)NN)o2)c(OC)c1
  2.4	-5.2	6.7%	-0.3	0.3	-15.7
> Cc1ccc(Cc2cnc(NC(=O)C3CCCO3)s2)cc1 (configuration not stated)
  -1.3	6.9	1.1%	1.7	-0.7	2.4
> CNC(=O)C1CC(=O)N(CCc2ccc(C)cc2)C1 (configuration not stated)
  -1.6	7.5	2.7%	5.4	0.7	-8.7
> O=S(=O)(Cc1ccccc1)N1CCCC(c2nc(-c3ccc(F)cc3)no2)C1 (configuration not stated)
  -1.8	-0.2	-3.2%[38.3 µM]	-2.1	3.2	81.9
> O=C(Cc1c(O)c2ccccc2[nH]c1=O)NCc1ccccc1
  -4.7	41.7	1.8%	20.7	-0.7	9.9
> CCC(C)(C)C1CCc2[nH]nc(C(=O)NCc3ccc(Cl)cc3)c2C1 (configuration not stated)
  0.1	4.7	1.3%	5.7	0.2	-4.6
